# HSD17B inh – HSD17B dehydrogenase inhibition; actives 7.6% (n = 75,000); recombinant HSD17B10, NADH fluorescence kinetic; many of its hits are not listed in these tables; AID 893; Potency, µM (series often up to 57.1 µM), inactives show top-dose activity change, negative = inhibition, most hits filed as inhibitors; active = well fitted inhibition curve with a large enough effect; inconclusive = small, poorly fitted or top-dose-only effect; inactive = no such curve, though single readings can be large or run the other way;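 note: the protocol describes HADH2 (HSD17B10) and not the HSD17B4 of the title; nearly all actives have a fitted effect of over 70% in size; most hits overshoot -100% by far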
#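 20 nM HADH2, pH 9.0 Tris/Tween; cpd preinc 15 min RT; start w/ 1 mM NAD+ + 90 uM b-hydroxybutyryl-CoA; kinetic fluor ex360/em450 q30s x 4 min; delta last-first.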
# Numbers without * were called inactive; ? = inconclusive; & = joins results of further samples; [ ] = dose if it differs, or a comment. % is set by controls: 0 for no effect and ±100 for the full control effect; potency is the fitted concentration of half-maximal effect. These rows are one share of the data; count on the stated rates, not on these rows.
SMILES,HSD17B inh
CCCc1[nH]nc2c1C(c1ccc(O)c(OC)c1)C(C#N)=C(N)O2 (stereo not drawn),-4%
COc1ncnc2c1oc1nc(CC(C)C)c3c(c12)CCCC3,7%
CCN1C(=O)c2ccccc2S(=O)c2ccc(C(=O)NCCCN3CCCC3=O)cc21 (stereo not drawn),5%
CC(C)P(=O)(Cc1cccc(C#N)c1)C(C)C,1%
COCC(COCCCNC(=O)Nc1ccc(Br)cc1)OC (stereo not drawn),13%
Cn1cccc1C(=O)N1CCC2(CCCN(Cc3ccncc3)C2)CC1,7%
c1ccc2c(c1)nc(NC1CCCCC1)c1nncn12,-12%
COc1cc(-c2nnc3sc(-c4ccco4)nn23)cc(OC)c1OC,2%
O=C(O)c1cc(N=Nc2ccc([N+](=O)[O-])cc2)ccc1O,-1%[11.4 µM]
CN(C)S(=O)(=O)N(CC(=O)NCc1ccccc1)c1ccccc1,-6%
CCn1cnc2cc(NCc3ccc(C)cc3)ccc21,25µM*
C=CCc1ccc(OCC(O)CN2CCCCC2)c(OC)c1 (stereo not drawn),-12%
COCCNc1nc(-c2ccccc2Cl)nc2ccccc12,3%
O=C(CCCSc1nnc(-c2cccs2)n1CC1CCCO1)c1ccccc1 (stereo not drawn),-5%
CCn1c(C(=O)N2CCCC(C(=O)O)C2)cc2sccc21 (stereo not drawn),0%
CSC1=C(C#N)C2(CCCC2)C(C#N)=C(N)N1,?
Cc1cccc(NC(=O)CS(=O)(=O)c2c[nH]c3ccccc23)c1C,1%
COc1ccc(NC(=O)CN2C(=O)C(C)Oc3ccccc32)c(OC)c1 (stereo not drawn),9%
CCOC(=O)N1CCN(CCC(=O)Nc2ccc(C)c(Br)c2)CC1,-4%
O=C(Oc1ccccc1)c1cc2ccccc2o1,6%
O=C(Nc1ccc(Cl)cc1)C1CCCN(S(=O)(=O)c2cnc[nH]2)C1 (stereo not drawn),7%
NC[C@@H]1O[C@H](O[C@@H]2[C@H](O[C@@H]3O[C@H](CO)[C@@H](O)[C@@H]3O)[C@@H](O)[C@@H](N)C[C@H]2N)[C@@H](N)[C@H](O)[C@@H]1O,2%[25.6 µM]
COC(=O)C1CCN(C(=O)Cc2ccc(Br)cc2)CC1,-15%
O=C(CCC(=O)c1ccc(F)cc1)OC1CCOC1=O (stereo not drawn),-11%
Cc1cc(C)n(C(=O)c2ccc(NC(=O)C3COc4ccccc4O3)cc2)n1 (stereo not drawn),?
CCn1c(CSc2ncccn2)nnc1SCC(=O)N1c2ccccc2CC1C (stereo not drawn),13%
N#Cc1cccc(-c2cc(NCc3cccnc3)ncn2)c1,?
COCCCN1C(=O)C(=O)/C(=C(/O)c2ccc(C)cc2)C1c1ccccc1 (stereo not drawn),10%
O=C(CCn1c(=O)[nH]c2ccccc2c1=O)N1CCN(c2ccc(Cl)cc2)CC1,-2%
CCCOc1ccc(CN(CCO)CCO)cc1C(=O)OC,-12%
COC(=O)NCc1ccc(CNC(=O)OC)cc1,2%
COc1ccc(CCn2c(NCc3ccco3)nc3c2c(=O)[nH]c(=O)n3C)cc1,3%
CCSc1nc(O)cc(=O)n1-c1ccc(OC)cc1,-1%
CCC(Sc1nc2c(c(=O)[nH]1)CCC2)C(=O)Nc1cccc(OC)c1 (stereo not drawn),-20%
COc1ccc(C(=O)NCc2oc(-c3ccccc3)cc2C(=O)O)cc1,?
COc1ccc(CCNC(=O)C2CCCN(S(=O)(=O)c3cnc[nH]3)C2)cc1OC (stereo not drawn),4%
CC1CCc2cc(F)ccc2N1C(=O)CCC(=O)O (stereo not drawn),7%
COc1ccc(-c2noc(CSc3nc(-c4ccccc4)cc(=O)[nH]3)n2)cc1OC,-6%
O=C(CCCCCCCCCCCCC1CCCC1)Nc1ccc(S(=O)(=O)c2ccc(NC(=O)CCCCCCCCCCCCC3CCCC3)cc2)cc1,-22%
CCCSc1nc2c(c(=O)[nH]c(=O)n2C)n1CCc1ccccc1,9%
COc1ccccc1NC(=O)N1CCCC(C(=O)Nc2cccc(C)c2C)C1 (stereo not drawn),4%
Nc1ncc(Br)cc1S(=O)(=O)NCCC(=O)N1CCN(c2ncccn2)CC1,?
COc1cccc(C2NC(C)(C(=O)O)C3C(=O)N(C(C)C)C(=O)C23)c1O (stereo not drawn),7%
c1cnc2c(OCc3nc4ccccc4[nH]3)cccc2c1,5%
COc1ccccc1N1CCN(C/C(C)=C/c2ccccc2)CC1,2%
O=C(c1csnn1)N1CCC2(CC1)CCN(c1ccccc1)CC2,-5%
Cc1cc(C(=O)N2CCN(Cc3ccc4c(c3)OCO4)CC2)on1,0%
Cc1ccc(OCC(O)CN2C(=O)NC(C)(C)C2=O)cc1C (stereo not drawn),2%
CCNCCNC(=O)c1c(O)c2c([nH]c1=O)CCCC2,-3%
N#Cc1nc(-c2ccc(Cl)cc2)oc1NCc1cccc2c1OCO2,32µM*
CCSc1nc2c(c(=O)n1Cc1ccccc1)SC(C)C2 (stereo not drawn),-8%
COC(=O)c1sc(NC(=O)c2cnccn2)c(C(=O)OC)c1C,-10%
CCN1CCN(CC(=O)Nc2ccc3c(c2)OCCO3)C(=O)C1=O,-3%
CCN1C(=O)C2(Nc3ccccc3-c3nc4ccccc4n32)c2cc(OC)ccc21 (stereo not drawn),-25%
Cn1c(=O)c(-c2ccccc2)nc2cncnc21,-11%
COc1ccccc1NC(=O)CSCC(N)=O,-2%
O=S(=O)(NCc1ccco1)c1cccc(S(=O)(=O)N2CCCCC2)c1,-4%
Cc1sc(NC(=O)c2ccc(Cl)s2)c(C(N)=O)c1C,13%
O=C(Nc1nccs1)c1cccc(S(=O)(=O)N2CCOCC2)c1,6%
COc1ccc(-c2nnn(CC(=O)N(CC(=O)NC3CCCC3)c3cccc(C)c3)n2)cc1OC,-6%

# More entries follow.
SMILES,HSD17B inh
O=C(O)c1ccc2c(c1)OCO2,1%
O=C(NCCCN1CCN(CCCNC(=O)c2ccccc2F)CC1)c1ccccc1F,8%
CCN(CC)S(=O)(=O)c1ccc(NC(=O)c2c(-c3ccccc3)noc2C)cc1,-25%
Cc1ccc(C2CC(=O)NC(SCc3ccccc3)=C2C#N)o1 (stereo not drawn),-11%
CN1CCN(c2nc3c(c(=O)[nH]c(=O)n3C)n2Cc2cccc3ccccc23)CC1,-9%
COc1cc(NC(=O)CCc2ccccc2)nc(OC)n1,4%
OCCN(CCO)c1ncnc2nc[nH]c12,7%[11.4 µM]
CC(=O)c1ccc(NC2OC(CO)C(O)C(O)C2O)cc1 (stereo not drawn),-15%
COc1cccc(CNc2nn[nH]n2)c1OC,8%
O=C(CCn1c(=S)[nH]c2ccccc2c1=O)NCCCN1CCCC1=O,-1%
CCCCNC(=O)CCCCCNS(=O)(=O)c1ccc(OC)cc1,-13%
CCOC(=O)C1CCCN(S(=O)(=O)Cc2ccccc2)C1 (stereo not drawn),-17%
CCCCN1C(=O)c2ccccc2C1C(=O)NC1CCCC1 (stereo not drawn),4%
CCOC(=O)CSc1nnc2n1C(C)(C)Cc1ccccc1-2,3%
CCCCc1c(O)nc(SCC(=O)N2CCCCC2)n(-c2ccccc2C)c1=O,12%
COC(=O)C1=C(CSc2nc3ccccc3o2)NC(=O)NC1c1cc(C)ccc1C (stereo not drawn),-3%
N#Cc1nc(-c2ccccc2F)oc1NC1CCCCC1,13µM*
Cc1cccc(C(=O)NCc2nnc(SCC(=O)N3CCN(c4ccccc4)CC3)n2C)c1,3%
Cc1cccnc1NCc1ccc(O)c2ncccc12,-2%
Cc1cnc(CNc2cc(-c3ccccc3Cl)ncn2)cn1,-16%

# Single entries from the entries so far:
# In HSD17B inh, COC(=O)C1=C(CSc2nc3ccccc3o2)NC(=O)NC1c1cc(C)ccc1C (stereo not drawn) reads -3%
# In HSD17B inh, CCN(CC)S(=O)(=O)c1ccc(NC(=O)c2c(-c3ccccc3)noc2C)cc1 reads -25%
# In HSD17B inh, O=C(CCn1c(=S)[nH]c2ccccc2c1=O)NCCCN1CCCC1=O reads -1%

# Quoted at random: 4 records from the list, in no set order.
SMILES,HSD17B inh
CCCSc1nc2c(c(=O)[nH]c(=O)n2C)n1CCc1ccccc1,9%
O=C(Nc1nccs1)c1cccc(S(=O)(=O)N2CCOCC2)c1,6%
NC[C@@H]1O[C@H](O[C@@H]2[C@H](O[C@@H]3O[C@H](CO)[C@@H](O)[C@@H]3O)[C@@H](O)[C@@H](N)C[C@H]2N)[C@@H](N)[C@H](O)[C@@H]1O,2%[25.6 µM]
COc1ccc(-c2nnn(CC(=O)N(CC(=O)NC3CCCC3)c3cccc(C)c3)n2)cc1OC,-6%

# Continuation.
SMILES,HSD17B inh
CCOc1ccc(-n2cc(C(=O)Nc3cccc(C)n3)c3cc(OC)c(OC)cc3c2=O)cc1,4%
O=C(NCC1CCCO1)C1c2ccccc2C(=O)N1C1CCCCCC1 (stereo not drawn),8%
COc1ccc(C(=O)Oc2c(C)occc2=O)cc1OC,7%
CCOC(=O)CCNC(C)C1COc2ccccc2O1 (stereo not drawn),-5%
COc1ccc2c(c1)[C@@]1(C)CCC[C@](C)(CO)C1CC2 (stereo partly drawn),4%
O=S(=O)(c1ccccc1)N1CCC[C@@]2(CCN(Cc3ccccc3)C2)C1,4%
COc1ccc(S(=O)(=O)Nc2cc(C(C)C)c(O)cc2C)cc1,-23%
O=C1CC(c2ccc3c(c2)OCO3)c2cc3c(cc2N1)OCCO3 (stereo not drawn),3%
CCOc1ccc2nc(N3CCC(C(=O)N4CCN(C(=O)c5ccco5)CC4)CC3)sc2c1,5%
COC(=O)c1c(C(=O)OC)c(C)n(Cc2ccco2)c1C,0%
Cc1nn(C)c(C)c1S(=O)(=O)N(CC(=O)NCc1cccs1)c1ccc(C(C)C)cc1,3%
Cn1c(=O)c(C(=O)COC(=O)c2cc(-c3ccccc3)nc3ccccc23)c(N)n(Cc2ccccc2)c1=O,?
CCOc1ccc(C(=O)N(C)C2CCS(=O)(=O)C2)cc1 (stereo not drawn),5%
COc1ccc(Cc2nnc(SCC(=O)NCCc3ccccc3)o2)cc1,3%
CCOC(=O)C1=C(C)NC(=O)NC1C1CC=CCC1 (stereo not drawn),-9%
Cc1ccc(C(C)C)n1C(=O)OC(C)(C)C,1%[11.4 µM]
Cc1cccc(NCc2nc(-c3ccccc3)no2)c1,-10%
Cn1cccc1Cc1nnc(SCC(=O)Nc2ccc(Cl)cc2)n1-c1ccc(F)cc1,-1%
COC(=O)[C@@H]1CCCN1C(=O)[C@H]1C[C@@H]1[C@H](NC(=O)OCc1ccccc1)c1ccccc1,3%
Cn1c(=O)c2c(SCc3cccnc3)nc(C3CC3)nc2n(C)c1=O,-8%
CCOC(=O)C1CCCCN1Cc1ccc(OC)c(OC)c1OC (stereo not drawn),4%
N=C(N)C(N=Nc1ccccc1)C(=N)N (stereo not drawn),-4%[11.4 µM]
C[C@@]12CCC(=O)C=C1CC[C@@H]1[C@@H]2[C@H](O)C[C@]2(C)[C@@H]1CC[C@]2(O)C(=O)COC(=O)CCC(=O)O,-8%
CCOC(=O)c1ccc(N2C(=O)c3n[nH]c(C)c3C2c2ccc(O)cc2)cc1 (stereo not drawn),-19%
Cc1cc(NC(=O)c2ccc(COc3ccc(Cl)c(C)c3)o2)no1,2%
CC1(C)CC(N(Cc2cccs2)C(=O)c2ccco2)CCO1 (stereo not drawn),-13%
CCC1CCCCN1CCCNC(=O)C1CCC(=O)N1Cc1ccc(C)cc1 (stereo not drawn),3%
CCN(CC)C(=O)C1CCCN(Cc2ccc(OC)c(C)c2)C1 (stereo not drawn),5%
CCCCS(=O)CC(COCc1ccccc1)OC(=O)CSc1nc(C)cc(C)n1 (stereo not drawn),6%
CC(=O)CSc1ncnc2nc[nH]c12,9%
O=C(c1ccccc1F)N1CCN(CC2CC3C=CC2C3)CC1 (stereo not drawn),-9%
Cc1ccc(C)c(N(C(=O)Cn2nnc3ccccc32)C(C(=O)NCc2ccco2)c2ccncc2)c1 (stereo not drawn),1%
COc1ccc(CCNC(=O)c2ccco2)cc1,12%
CC(C)CNS(=O)(=O)c1ccc(CCC(=O)NCC2CCCO2)cc1 (stereo not drawn),-9%
CCOC(=O)C1=C(CNC2CCCCC2)NC(=O)NC1c1cc(C)ccc1C (stereo not drawn),-1%
O=C1Nc2ccccc2C12OCC(COc1ccc(Cl)cc1)O2 (stereo not drawn),-2%
COCCCNc1nc2c(c(=O)[nH]c(=O)n2C)n1CC(O)COc1ccccc1C (stereo not drawn),2%
COc1ccc(O[C@H]2C=C[C@@H](c3ccccc3)O[C@H]2COC(=O)CC/C(C)=N\O[C@@H](C)c2cn([C@H](CO)Cc3ccccc3)nn2)cc1,-2%&-4%[11.4 µM]
COC(=O)c1ccc(Oc2cc(C)nc(-n3nc(C)cc3C)n2)cc1,5%
NC(=O)c1ccccc1NC(=O)CCc1ccccc1,?
CCn1c(N)nc2ccccc21,-6%
COc1ccc(OC)c(Nc2nc(N)nc(-c3cc4ccccc4o3)n2)c1,?
CCCCN(C)C(=O)C1CCN(C/C(C)=C/c2ccccc2)CC1,-9%

# Given bar-delimited: six of the compounds above
Structure | HSD17B inh
COC(=O)C1=C(CSc2nc3ccccc3o2)NC(=O)NC1c1cc(C)ccc1C (stereo not drawn) | -3%
Cc1cc(NC(=O)c2ccc(COc3ccc(Cl)c(C)c3)o2)no1 | 2%
COC(=O)[C@@H]1CCCN1C(=O)[C@H]1C[C@@H]1[C@H](NC(=O)OCc1ccccc1)c1ccccc1 | 3%
Cn1cccc1C(=O)N1CCC2(CCCN(Cc3ccncc3)C2)CC1 | 7%
CCN(CC)S(=O)(=O)c1ccc(NC(=O)c2c(-c3ccccc3)noc2C)cc1 | -25%
O=C1Nc2ccccc2C12OCC(COc1ccc(Cl)cc1)O2 (stereo not drawn) | -2%
